Compound activity deposited in PubChem BioAssay by Fisher Drug Discovery Resource Center.
NPYLR7 agonist: mosquito NPYLR7 agonism. HEK293T NPYLR7/Galpha15, GCaMP6s calcium fluorescence. activation, % at 10 µM. 270,000 tested, 0.15% active; in the data active means activation above about 40%;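 further: 0% = vehicle and 100% = reference agonist at the receptor; some compounds past the cut are filed as inactive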
NPYLR7 agonist max-min: further read-out of NPYLR7 agonist, marked with its call; activation, %; measured here: Max-Min RFU normalised activation; some inactives read as strong as hits;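 span of the calcium signal over five minutes; 0% = vehicle and 100% = native peptide agonist; compound fluorescence can raise it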
An asterisk follows results filed as active; & = joins results of further samples. Not all compounds are listed; count on the stated rates, not on these rows.

SMILES | NPYLR7 agonist | NPYLR7 agonist max-min
Nc1ncc([N+](=O)[O-])c(N2CCCCC2)n1 | 4 | 4
Nc1ncc(CN2CCN(c3cccc(C(F)(F)F)n3)CC2)cn1 | -6 | -8
Cc1cc(=O)[nH]c(N2CCOCC2)n1 | 3 | 1
CCc1ccccc1NC(=O)CSc1nc2c(-c3ccccc3)c[nH]c2c(=O)n1C | -1 | -6
COc1ccc(CN2CCC(n3nccc3NC(=O)CCc3ccccc3)CC2)c(C)c1C | 1&-5 | 0&-7
O=C(C1CCCC1)N1CCc2c([nH]c3ccccc23)C1c1cc(F)ccc1F (stereo not drawn) | 1 | -2
CCCc1nnc2sc(-c3cn[nH]c3-c3cccc(OC)c3)nn12 | -3 | -5
CC(C)(C)c1nc(CNS(=O)(=O)c2cc(S(C)(=O)=O)ccc2Cl)no1 | 10 | 9
COc1cc(C(=O)Nn2cnc3c(cnn3C(C)(C)C)c2=O)cc(OC)c1OC | 21 | 16
CCOC(=O)Cc1n[nH]c(COc2ccc(Cl)cc2)n1 | -3 | 45
O=C(NCCc1ccccn1)c1csc(CSc2nnc(Cc3ccccc3)n2-c2cccc(Cl)c2)n1 | 15 | 14
CC(C(=O)N(C)C)N(C)Cc1nn(C)c2cccc(Cl)c12 (stereo not drawn) | 8 | 5
CCNC(=O)[C@@H]1C[C@@H](N)CN1C(=O)CCc1cn2ccccc2n1 | -6 | -10
CC1CN(C)CCN1Cc1ccccc1C#N (stereo not drawn) | 3 | 1
Ic1ccc2c(c1)Cc1ccccc1-2 | 4 | 2
CN(C(=O)COC(=O)c1sc2ccccc2c1Cl)C1CCS(=O)(=O)C1 (stereo not drawn) | 2 | 0
CCOC(=O)c1nc2cc(C)c(C)cc2nc1N1CCN(C(=O)COCCOC)CC1 | 31 | 31
O=C(CCc1ccc(Br)cc1)NCCc1n[nH]c(=O)[nH]1 | 0 | 0
Cc1cc(C)c(Cn2cncn2)cc1CN1CCN2C(=O)CNC(=O)C2C1 (stereo not drawn) | 14 | 9
O=C(c1ccc2c(c1)OCO2)C1CCCN(C(=O)C2CCOCC2)C1 (stereo not drawn) | -1&4 | 0&5
CCN(CC1CCCCO1)C(=O)CCNC(=O)c1ccccc1F (stereo not drawn) | 6 | -3
CCOC(=O)N1CCN(C(=O)c2ccc(N3CCC(NCCc4c(C)n[nH]c4C)CC3)cc2)CC1 | 14 | -1
Cc1cccc(C(=O)N2CCCC(CO)(Cc3ccccc3C)C2)n1 (stereo not drawn) | 3 | 0
N#CC1c2ccccc2C=CN1C(=O)c1ccccc1 (stereo not drawn) | 0 | 33
C=C(C)Cn1c(=S)[nH]c2c(c1=O)C(C)(C)Cc1ccccc1-2 | -1 | 0
Remaining list, next part
SMILES | NPYLR7 agonist | NPYLR7 agonist max-min
O=C1Nc2ccccc2NC1Oc1cccc(Cl)c1 (stereo not drawn) | -2 | -4
O=c1c2nnc3c(-c4ccccc4)cnn3c2ccn1C1CCCC1 | 2 | 1
O=C(O)COc1ccccc1/C=N\NC(=O)CSc1nnc(-c2ccc(Cl)cc2)n1-c1ccccc1 | 10 | 9
O=[N+]([O-])c1cc(S(=O)(=O)C(F)(F)F)ccc1N1CCCC1 | 10 | 8
CC(NC(=O)CN1CCCCC1C(=O)N1CCOCC1)c1cccc2ccccc12 (stereo not drawn) | 5 | 2
CCOC(=O)c1cc(-c2cccc(NC(=O)c3cc(C)nn3C)c2)n(-c2ccccn2)n1 | 28 | 15
O=C(Cc1cccs1)Nc1ccccc1NC(=O)C1CC=CCC1 (stereo not drawn) | -1 | -1
CCN1CCC2CCC(C1)N2C(=O)c1ccc(-c2ccc(F)cc2)cc1F (stereo not drawn) | 10 | 11
Cc1cc(C)c(C(=O)N2CCCC(N3CCN(c4cccc(C(F)(F)F)c4)CC3)C2)o1 (stereo not drawn) | 1&12 | -2&7
N#Cc1ccc(CCC(=O)OC(C(=O)NC2CC2)c2ccccc2)cc1 (stereo not drawn) | 5 | 2
CC[C@@H](C)Nc1cc(C(=O)NC2CC3CCC(C2)N3c2ccc(C(=O)C3CC3)cn2)c(C)cc1C(N)=O (stereo partly drawn) | 16 | 4
CN(C)CCN(Cc1nccn1Cc1ccccc1C(F)(F)F)C(=O)c1ccco1 | 0 | 3
O=C(NCc1ccccn1)c1cccc(OC2CCN(C(=O)C3CCCO3)CC2)c1 (stereo not drawn) | 1 | -2
CCN1CCN(C(c2ccc(Cl)cc2)c2c(O)cc(C)n(CC)c2=O)CC1 (stereo not drawn) | 12 | 2
CCC(C(=O)NCCOc1ccc2nnc(-c3ccc(F)cc3)n2n1)c1ccccc1 (stereo not drawn) | -10 | -15
O=C(c1ccccc1Cl)N1CCCN(c2nc(Cc3ccccc3)nc3onc(-c4ccccc4)c23)CC1 | 12 | -1
Cc1ccc(F)cc1Oc1ccc2c(C3CC3)noc2n1 | 9 | 5
CCNC(=S)NC(CC)C1c2cc(OC)c(OC)cc2CCN1Cc1ccccc1F (stereo not drawn) | 9 | 0
Cc1cc(Nc2ccc3c(n2)C(=O)N([C@H](C)C(=O)NCC2CC2)C3)n(C)n1 | 6 | 0
Cc1nc(SCC(=O)NCCCN2CCOCC2)n[nH]1 | -1 | -1
O=C(Cn1cnc2sc3c(c2c1=O)CCCC3)NCCCC(=O)NC1CCCCC1 | 2 | 0
COc1ccccc1N1CCN(C(=O)c2ccccc2F)CC1 | 5 | 3
COC(=O)c1ccc(C2c3c(oc4ccccc4c3=O)C(=O)N2c2cc(C)on2)cc1 (stereo not drawn) | 7 | 3
Cc1nc(SC(C)C(=O)NC(=O)NC2CCCCC2)n(CC(C)C)c1C (stereo not drawn) | 5 | 0
Cc1cc2c(=O)n(Cc3ccco3)c(SCC(=O)NC3CCCC3)nc2s1 | -5 | -4
New compounds follow:
SMILES | NPYLR7 agonist | NPYLR7 agonist max-min
CCc1nc2n(n1)C(=O)C(C(c1ccc(OC)cc1)N1CCC3(CC1)OCCO3)S2 (stereo not drawn) | -3 | -11
O=c1cc(Cn2nc3ccc(-c4ccc(Cl)cc4)nn3c2=O)nc2ccccn12 | 36 | 19
COc1cccc(C(=O)N(CCCn2ccnc2)c2nc3c(C)cccc3s2)c1OC | -13 | -15
O=C(NC(C(=O)N1CCOCC1)C12CC3CC(CC(C3)C1)C2)C1CCCCC1 (stereo not drawn) | 5 | 6
CCC(=O)Nc1ccc(N(C)C)c(CN(CC2CCCO2)C(=O)C(C)C)c1 (stereo not drawn) | 28 | 31
O=S(=O)(Nc1ccc(NS(=O)(=O)c2ccc(F)cc2)cc1)c1ccc(F)cc1 | 1 | 2
CCn1cc(S(=O)(=O)N(CC2CCCO2)C2CCCC2)cn1 (stereo not drawn) | 6 | 7
COc1cccc(CN2CCC(NC(=O)c3cc(F)c(-n4ccnc4-c4ccccc4)cc3F)C2)c1 (stereo not drawn) | 9 | 3
CCn1c(SCC(=O)NCCc2ccccc2C)nnc1-c1ccco1 | 0 | 4
CCOC(=O)C1=C(O)/C(=C\c2ccc(N(C)C)cc2)SC1=Nc1cccc([N+](=O)[O-])c1 | -1 | 9
CCCn1c(C)cc(C=C(C#N)C(N)=S)c1C | 1 | 6
O=c1oc(-c2cccs2)nc2cc([N+](=O)[O-])ccc12 | -12 | -15
COc1ccc(-n2nc3ccc(NC(=O)c4ccc(OC)c([N+](=O)[O-])c4)cc3n2)cc1 | -7 | -16
COc1cc(CNC(=O)NCCC(=O)N2CCCCCC2)cc(OC)c1 | 13 | 10
O=C(c1ccsc1)N(CC1CCN(Cc2ccccc2F)CC1)CC1CCCO1 (stereo not drawn) | 4 | -3
Cc1ccc(O)c(-c2nc3c(C)cccc3o2)c1 | 0 | -7
Cc1ccc(C(=O)N2CCc3ccccc32)cc1[N+](=O)[O-] | 5 | 2
COc1cc(OC)cc(C(=O)NCc2nnc(SCc3ccc(F)cc3)n2-c2cc(Cl)ccc2C)c1 | 3 | 11
CCCSCC(=O)N1Cc2cnc(C(C)(C)C)nc2C1 | 7 | 5
CCCOc1ccc(Cc2c(O)[nH]c(=S)[nH]c2=O)cc1C | 2 | 1
CC(C)(C)C(NCc1cc2c(cc1Br)OCCO2)c1cccs1 (stereo not drawn) | 8 | 6
CCCn1nccc1NC(=O)c1cccc(CN2C[C@@H](C)O[C@@H](C)C2)c1 | 6 | -5
CCn1ccnc1C(O)c1cccc(OC)c1 (stereo not drawn) | 8 | 5
CCOCCOC(=O)C1=C(C)N(C)C(=O)NC1c1ccc([N+](=O)[O-])cc1 (stereo not drawn) | 11 | 14
O=C(COc1ccccc1)OCc1cc(-c2cc3ccccc3o2)on1 | -2 | -4

In another format: results already given.
| Structure | NPYLR7 agonist | NPYLR7 agonist max-min |
| --- | --- | --- |
| CCc1nc2n(n1)C(=O)C(C(c1ccc(OC)cc1)N1CCC3(CC1)OCCO3)S2 (stereo not drawn) | -3 | -11 |
| O=c1cc(Cn2nc3ccc(-c4ccc(Cl)cc4)nn3c2=O)nc2ccccn12 | 36 | 19 |
| COc1cccc(C(=O)N(CCCn2ccnc2)c2nc3c(C)cccc3s2)c1OC | -13 | -15 |
| O=C(NC(C(=O)N1CCOCC1)C12CC3CC(CC(C3)C1)C2)C1CCCCC1 (stereo not drawn) | 5 | 6 |
| CCC(=O)Nc1ccc(N(C)C)c(CN(CC2CCCO2)C(=O)C(C)C)c1 (stereo not drawn) | 28 | 31 |
| O=S(=O)(Nc1ccc(NS(=O)(=O)c2ccc(F)cc2)cc1)c1ccc(F)cc1 | 1 | 2 |
| CCn1cc(S(=O)(=O)N(CC2CCCO2)C2CCCC2)cn1 (stereo not drawn) | 6 | 7 |
| COc1cccc(CN2CCC(NC(=O)c3cc(F)c(-n4ccnc4-c4ccccc4)cc3F)C2)c1 (stereo not drawn) | 9 | 3 |
| CCn1c(SCC(=O)NCCc2ccccc2C)nnc1-c1ccco1 | 0 | 4 |
| CCOC(=O)C1=C(O)/C(=C\c2ccc(N(C)C)cc2)SC1=Nc1cccc([N+](=O)[O-])c1 | -1 | 9 |
| CCCn1c(C)cc(C=C(C#N)C(N)=S)c1C | 1 | 6 |
| O=c1oc(-c2cccs2)nc2cc([N+](=O)[O-])ccc12 | -12 | -15 |
| COc1ccc(-n2nc3ccc(NC(=O)c4ccc(OC)c([N+](=O)[O-])c4)cc3n2)cc1 | -7 | -16 |
| COc1cc(CNC(=O)NCCC(=O)N2CCCCCC2)cc(OC)c1 | 13 | 10 |
| O=C(c1ccsc1)N(CC1CCN(Cc2ccccc2F)CC1)CC1CCCO1 (stereo not drawn) | 4 | -3 |
| Cc1ccc(O)c(-c2nc3c(C)cccc3o2)c1 | 0 | -7 |

(further entries)
SMILES | NPYLR7 agonist | NPYLR7 agonist max-min
COc1ccc(CN(C(=O)COc2ccc(Cl)cc2)C(C)C)cc1OS(C)(=O)=O | -2 | 0
O=C(c1cc(-c2ccccc2Cl)nn1-c1ccc(F)cc1)N1CCN(c2cccc(C(F)(F)F)c2)CC1 | 1 | 7
C=C(C)CNC(=O)c1cnc2c(-c3ccc4c(c3)OCO4)cnn2c1C | 15 | 5
O=C(NCc1ccncc1)c1ccc(-c2cc(-c3cccc4ccccc34)[nH]n2)cc1 | 24 | 15
COc1ccc(-n2nc3c(C)nnc(C)c3c2C)cc1OC | 3 | 2
CCOC(=O)c1cn[nH]c1S(=O)(=O)Nc1cccc(CC)c1 | 2 | -2
O=C(Cn1ncc(=O)c2ccccc21)N1CCCN(S(=O)(=O)c2ccc(F)cc2)CC1 | 4 | 1
FC(F)n1c(CN2CCCCC2C2OCCO2)nc2ccccc21 (stereo not drawn) | 2 | 1
Cc1cn2c3c(=O)n(C)c(=O)n(C)c3nc2n1-c1ccccc1OCC(=O)C(C)(C)C | 6 | 1
O=C(Cc1c[nH]c2ccccc12)N1CCCC1c1ccccn1 (stereo not drawn) | 2 | 1
CCOC(=O)CCCC(=O)N1CCC(c2nc(-c3ccc(C(F)(F)F)cc3)no2)CC1 | -5 | -6
COc1nn(C)cc1C(=O)Nc1ccc2nc(SC)sc2c1 | -4 | -5
O=C(Nc1ccc(-c2noc(-c3ccccc3)n2)cc1)c1ccco1 | -3 | -6
COc1ccc(OCCN2CCC(C(=O)NC(c3ccc(OC)cc3)c3ccccn3)CC2)cc1 (stereo not drawn) | 16 | 8
CN(Cc1nc(-c2ccc(Br)s2)no1)c1nccs1 | -2 | -2
COCC(O)CN(C)CCC(=O)Nc1cc(Cl)ccc1OC (stereo not drawn) | -1 | 6
Cc1n[nH]c(C)c1CCNC(=O)c1cccc(NCc2cccnc2)c1C | 25 | 12
CC(C)(C)n1cc(C#N)c(NC(=O)Cc2cccs2)n1 | -2 | -3
O=C(Cc1ccc(N2CCCC2=O)cc1)NCCc1ccc(F)cc1 | 8 | 3
CCN1CCc2nc(NC=CC(=O)C(F)(F)F)sc2C1 | 15 | 10
COc1ccc(CN(CC(C)C)C(=O)c2ccc(Br)cc2)cc1OS(=O)(=O)c1ccc(F)cc1 | 3 | 7
CC(C)CCNC(=O)Cn1cnc2cc(F)c(F)cc21 | 3 | 3
Cc1cc(OS(=O)(=O)c2ccc(Cl)cc2)cc2c1C(=O)/C(=C/c1cccnc1)O2 | 2 | -1
Cc1cccc(C)c1OCC(C)NCC(=O)Nc1cnccn1 (stereo not drawn) | 4 | 1
CCOc1ccc(C(O)=C2C(=O)C(=O)N(CCCN(C)C)C2c2ccc(F)cc2)c(C)c1 (stereo not drawn) | -2 | -8
Going on with the list.
SMILES | NPYLR7 agonist | NPYLR7 agonist max-min
COc1ccc(Cc2nnc3n2N=C(C24CC5CC(CC(C5)C2)C4)CS3)cc1 | 8&5 | 6&6
CNC(=O)CC(C)N(C)Cc1cc(C(C)(C)C)ccc1O (stereo not drawn) | 5 | 2
C=CCSc1nnc(-c2sc3ccccc3c2Cl)o1 | 4 | 2
CCOC(=O)c1nn(Cc2ccc(OC)cc2)c2c1CN(C(=O)c1scc3c1OCCO3)CC2 | 5 | -5
Cc1cccc(-c2ncc(CNC(C)c3cnn(-c4cccc(F)c4)c3C)cn2)c1 (stereo not drawn) | 6 | 0
O/N=C1/CCC2CCCC1C2 (stereo not drawn) | 3 | 0
CC1CC(N2CCN(C(C)c3ccc(F)cc3F)CC2)C(=O)O1 (stereo not drawn) | 11 | 6
CC(=O)c1c(C)nc2ccc(Cl)cc2c1-c1ccccc1 | 11 | 15
O=C(c1cn(C2CCCCC2)nn1)N(Cc1ccccn1)CC1CCCO1 (stereo not drawn) | 1 | -1
